VDR inhibitor: vitamin D3 receptor (human) inhibition | 0.93% of 400,000 active | P11473 | AID 504847 | VDR-SRC2-3 peptide fluorescence polarization, 2 h | Potency, µM, inactives show max response, negative = inhibition, hits mostly inhibitors; active = well fitted inhibition curve with a large enough effect; inconclusive = small, poorly fitted or top-dose-only effect, or another doubt; inactive = no such curve, though single readings can be large or run the other way; also: series mostly up to about 120 µM
Target sequence (P11473 whole entry, looked up): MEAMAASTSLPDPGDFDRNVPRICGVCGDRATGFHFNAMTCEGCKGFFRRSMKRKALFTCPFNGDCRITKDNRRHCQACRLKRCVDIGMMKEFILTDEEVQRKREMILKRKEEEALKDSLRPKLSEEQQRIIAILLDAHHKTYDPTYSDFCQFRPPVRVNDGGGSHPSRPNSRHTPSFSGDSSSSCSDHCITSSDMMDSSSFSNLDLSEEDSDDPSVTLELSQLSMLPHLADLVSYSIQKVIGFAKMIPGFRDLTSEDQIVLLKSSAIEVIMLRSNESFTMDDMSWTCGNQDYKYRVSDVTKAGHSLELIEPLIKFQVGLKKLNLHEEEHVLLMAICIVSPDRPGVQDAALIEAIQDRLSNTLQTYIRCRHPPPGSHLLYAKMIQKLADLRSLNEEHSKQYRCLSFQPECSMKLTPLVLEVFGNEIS
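The screen uses fluorescence polarization to detect compounds that interfere with recruitment of the SRC2-3 coactivator peptide to VDR; plates are read after 2 h at room temperature.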
Starred values were filed as active, the others as inactive; ? = inconclusive; & = joins results of further samples; [ ] = remark or other dose. % is scaled to controls: 0 for no effect and ±100 for the full control effect; potency is read from the fitted curve at half-maximal effect. An excerpt, so the mix of outcomes need not match the whole.

Structure	VDR inhibitor
O=C(O)/C(=C\c1ccccc1OC(F)F)c1ccc(-c2ccccc2)cc1	-9.0%
O=C(c1ccc(COCC(F)(F)F)cc1)N1CCN(c2ccccn2)CC1	-6.8%
OCC1(CCOc2ccccc2)CCN(Cc2cn[nH]c2-c2ccccc2)CC1	?
CC(C)CCN1CCN(Cc2ccc(Oc3ncccn3)cc2)CC1CCO (centres undefined)	6.6%
CC(Oc1ccccc1)C(=O)Nc1nnc(S(=O)(=O)N2CCCCCC2)s1 (centres undefined)	-7.1%&-11.3%
O=C(c1ccc(C(=O)N2CCOCC2)s1)N1CCOCC1	12.3%
NC(=O)c1ccsc1NC(=O)COC(=O)c1ccc(Cl)nc1	14.8%
COc1ccc(C(=O)NCc2ccc(C)cc2)cc1S(=O)(=O)N1CCCc2ccccc21	-7.2%
CCOc1ccccc1CNc1nc2nc3c(c(=O)n2[nH]1)CCC3	-6.0%
CC12CCC(C(=O)NC(c3ccccc3)c3ccccc3)(OC1=O)C2(C)C (centres undefined)	1.2%
O=C1CSC(=S)N1c1ccc(Cl)c(Cl)c1	-1.2%
O=C(NCc1ccc(F)cc1)c1ccc2c(=O)n3c(nc2c1)CCCCC3	5.5%
CN(C1CCCCC1)S(=O)(=O)c1cn(C)c(=O)n(C)c1=O	-5.8%
COc1ccc(C(=O)c2c(N)c(C(=O)Nc3ccccc3Cl)c3ccccn23)cc1	13.9%
Cc1nn(-c2ccccc2)c(Cl)c1C(=O)NCC(=O)O	16.5%
Cc1ccc(NC(=O)CC2S/C(=N/N=C/C=C/c3ccccc3)NC2=O)cc1Cl (centres undefined)	-12.1%
CC1CCN(c2nc3c(c(=O)[nH]c(=O)n3C)n2CCSc2ncccn2)CC1	-10.8%
CCOC(=O)c1c(C)[nH]c(CCC(=O)NCc2cccc(C)c2)c1C	6.6%
CCOC(=O)C1CCCN(C(=O)c2cn(-c3ccccc3)nc2-c2cccnc2)C1 (centres undefined)	1.1%
COc1ccc(OC)c(CNC(=O)CCCn2nc(C)c3c(C)n(-c4ccc(C)cc4)nc3c2=O)c1	-1.7%
O=C(CSc1nnc(SCc2ccccc2)s1)N/N=C/c1c(Cl)cccc1Cl	-2.2%
CC(C)CC(C(=O)NC(C)(C)C)N(Cc1ccccc1Cl)C(=O)c1snc(C(N)=O)c1N (centres undefined)	-1.1%
N#Cc1c(N)n(-c2ccc(C(=O)O)cc2)c2nc3ccccc3nc12	-20.7%
Cc1ccc(-c2csc(N=C(N)N)n2)cc1	30.9%[activator]
O=C1CC(c2ccc(S(=O)(=O)NCCOc3ccccc3)cc2)CN1 (centres undefined)	-3.7%
Nc1c(NCc2ccccc2F)c(=O)[nH]c(=O)n1Cc1ccccc1	8.9%
COc1ccc(Br)cc1Cn1nnc(C(=O)Nc2cccc(SC)c2)c1N	-11.9%
OC(COC(c1ccccc1)c1ccccc1)CN1CCCCC1 (centres undefined)	-5.9%
Clc1cccc(Cl)c1C[n+]1ccc2ccccc2c1	20.8%
COc1ccc(CC(=O)NCC2CCCN(Cc3ccc(F)c(OC)c3)C2)cc1 (centres undefined)	-9.7%
Cc1nc(CSc2ccc(Cl)cc2)cs1	-2.0%
O=C(CCNC(=O)c1ccco1)NC(Cc1c[nH]c2ccccc12)C(=O)O (centres undefined)	8.6%
O=C(CNC(=O)C1CCCCC1)Nc1ccccc1	7.3%
Cc1ccc(N2C(=O)C3N=NN(CC(=O)N4N=C(c5cccc6ccccc56)CC4c4ccccc4)C3C2=O)cc1 (centres undefined)	-10.1%
CC(=O)N/C(=C\c1ccccc1)C(=O)OCC(=O)c1ccccc1	-18.4%
O=C(COC(=O)c1c(F)cccc1F)Nc1ccc2[nH]c(=O)[nH]c2c1	13.5%
CCN1C(=O)/C(=C/N(C)C)c2ccccc21	8.4%
COc1ccc(NC(=O)CN(c2ccc(Cl)cc2)S(C)(=O)=O)cc1OC	14.4%
COc1ccc(C2C(C#N)=C(N)Nc3nc4ccccc4n32)cc1 (centres undefined)	-14.5%
Cc1ccc(NC(=O)C2CCC2)cc1S(=O)(=O)N1CCCCCC1	14.7%
Cn1c(/N=C/c2c(O)ccc3ccccc23)nc2ccccc21	35.5µM*
CC(=O)N(Cc1ccccc1)C(CC(=O)NCc1ccccc1)C(=O)O (centres undefined)	0.8%
N#Cc1ccc(OCC(=O)NC(=O)NC2CCS(=O)(=O)C2)cc1 (centres undefined)	-4.6%
CCOC(=O)Cn1c(=O)sc2ccccc21	8.6%
Cc1ccc(C(=O)NC(=S)Nc2cc(C(F)(F)F)ccc2Cl)cc1	-10.4%
Cc1ccc(S(=O)(=O)N2CCCN(S(=O)(=O)c3ccc(C)c(C)c3)CC2)cc1C	-12.2%
C/C(CC(=O)Nc1ccc(C)c(Cl)c1)=N\NC(=O)Cc1cccs1	9.4%
Cc1ccc(NC(=O)CCCOc2ccccc2)cc1S(=O)(=O)N1CCOCC1	-5.3%
Cc1ccc(NCc2cccnc2)cc1	1.0%
CC(C)(C)CNC(=O)c1cccc2c1C(=O)c1ccc(-c3cc4ccccc4o3)cc1S2(=O)=O	-5.2%
CCN1C(=O)S/C(=C\c2ccc(N3CCOCC3)cc2C)C1=O	2.5%
O=[N+]([O-])c1cc(-c2ccn[nH]2)ccc1Cl	21.5%
COc1ccc(C(=O)N(C)CCCC2CCCC2)cc1OC1CCN(C(C)C)CC1	1.2%
COC(=O)CN1C(=O)N/C(=C/c2cc(OC)c(OC)cc2C)C1=O	-23.6%
CC(=O)c1ccc(OCC(=O)Nc2cccc(S(=O)(=O)N3CCCC3)c2)cc1	-3.7%
CCn1cc(S(=O)(=O)c2cc(C)cc(C)c2)c(=O)c2cc(F)c(N3CCCCC3)cc21	3.3%

Next structures follow:
Structure	VDR inhibitor
CCC(C)N(C(=O)COC(=O)CNC(=O)c1ccccc1F)C1CCS(=O)(=O)C1 (centres undefined)	16.1%
Cc1ccc(OC(=O)c2ccc([N+](=O)[O-])cc2Cl)cn1	-5.5%
COc1cccc(C2=NOC(C(=O)NCc3ccccn3)C2)c1 (centres undefined)	7.4%
CCOc1ccc(-n2c(Cc3cc(=O)[nH]c(=O)[nH]3)nnc2SCC(=O)Nc2nnc(C)s2)cc1	-13.2%
COC(=O)c1cccc(N(C(=O)CNC(=O)c2ccco2)C(C(=O)NC2CCCC2)c2ccco2)c1 (centres undefined)	-6.9%
COc1ccc(OC)c(S(=O)(=O)Nc2cc(OC)c(Cl)cc2OC)c1	7.6%
Cc1ccc(N2CC(c3nnc(NC(=O)c4ccco4)s3)CC2=O)cc1C (centres undefined)	10.0%
CC(=O)Oc1ccc(/C=C2/SC(=S)N(Cc3ccccc3)C2=O)cc1	-12.8%
N#CCNC(=O)c1nn2c(C(F)(F)F)cc(-c3ccccc3)nc2c1Br	-14.2%
Cc1nn(Cc2ccc(Cl)cc2)c(C)c1NC(=O)C(c1ccccc1)c1ccccc1	-5.6%
O=C(C/C=N\OCc1ccc([N+](=O)[O-])cc1)Nc1ccccc1	6.5%
O=C1Cc2cc(S(=O)(=O)Nc3ccc(N4CCOCC4)cc3)ccc2N1	9.4%
COc1ccccc1NC(=O)CC(NCc1ccccc1)C(=O)O (centres undefined)	-4.9%
CC1(C)CC(NC(=O)C2CCN(S(=O)(=O)c3ccc(Cl)c(C(F)(F)F)c3)CC2)CC(C)(C)N1	-16.6%
COc1cc(NC(=O)COc2ccc(-n3cnnn3)cc2)c(OC)cc1Cl	-4.3%
C=CCOCCN1C(=O)C2C3C=CC(C2C1=O)C1C2C(=O)N(CCOCC=C)C(=O)C2C31 (centres undefined)	-3.3%
CN(C)S(=O)(=O)Oc1ccccc1C(=O)Nc1ccc(F)cc1F	-7.0%
O=C(Nc1ccccc1NC(=O)C1CCCO1)c1ccco1 (centres undefined)	-8.9%
S=C(NCc1ccccc1)NCc1ccc(Cl)cc1	-6.2%
Cc1ccc2nc(N3CCN(C(=O)c4cccs4)CC3)c(C#N)cc2c1	-8.7%
CC(=O)c1cccc(NS(=O)(=O)c2ccc(N/C=C/C(=O)c3ccc(F)cc3)cc2)c1	-6.8%
Cc1oc2cc3oc(=O)c(CCC(=O)NC4CC4)c(C)c3cc2c1C	5.5%
CC(=O)c1cccc(N2C(=O)CC(N3CCN(S(=O)(=O)c4ccccc4F)CC3)C2=O)c1 (centres undefined)	6.5%
COc1cccc([C@@H]2Oc3ccc(OC)cc3[C@H](O)[C@H]2O)c1	2.3%
O=[N+]([O-])c1ccc2c(c1)[nH]c(=S)n2-c1ccccc1	-12.4%
Cc1ccc(S(=O)(=O)N2CCCCC2)cc1NC(=O)CSc1nnc(N)s1	-16.8%
O=C(OCC#CCSc1nnc(-c2cccc3ccccc23)o1)c1ccc2ccccc2c1	16.4%
CC(C)CCNC(=O)c1cc2c(=O)[nH]c3ccccc3c2s1	4.9%
O=C(Cc1ccccc1)NNC(=O)C1CC=CCC1 (centres undefined)	-3.2%
Cc1nn(-c2ccccc2)c2sc(C(=O)N(CC(=O)NC(C)(C)C)Cc3ccco3)cc12	0.8%
CNc1snc(C)c1C(=O)OC(C)C(=O)Nc1cccc(OC)c1 (centres undefined)	-7.9%
COc1ccc(NS(=O)(=O)c2ccc(NC(=S)NC(=O)c3cccc(F)c3)cc2)nn1	1.5%
CC1=CCC[C@@H]2[C@@](C)(CC/C(C)=C/C(=O)O)[C@H](C)CC[C@@]12C	-28.8%
CN(C)S(=O)(=O)c1ccc(NC(=O)N2CCOCC2)cc1	13.7%
COc1cc(C2=NOC(C(=O)NCc3ccco3)C2)cc(OC)c1OC (centres undefined)	13.6%
CCOC(=O)Cc1c(C)nc2c(-c3ccc(Cl)cc3)c(C)nn2c1C	-11.6%
CCCCN1C(C(=O)c2ccccc2)=C(OC(=O)CC)c2ccccc2S1(=O)=O	-29.6%
CC12CCC(=O)N1C(C(=O)Nc1ccc(Cl)c(S(=O)(=O)N3CCCCC3)c1)CS2 (centres undefined)	13.5%
O=[N+]([O-])c1ccc(O)c(/C=N/Nc2ccccn2)c1	-2.9%
C[C@@H](C(=O)N1CCNCC1)n1cc(CCCN=C(N)N)nn1	2.1%
COc1ccc(C(=O)N(C)C2CCCN(Cc3ccccc3F)C2)cc1C (centres undefined)	-6.2%
COc1ccc2oc(-c3cccc(NC(=O)CSc4ccc(Cl)cc4)c3)nc2c1	-6.2%
NC(=O)CSc1nc2ccccc2c(=O)n1-c1ccccc1	4.8%
COC(=O)c1cc(N=Nc2c(C)[nH]c3ccccc23)cc(C(=O)OC)c1	-11.2%
COc1cccc(C=NNC(=O)C(C)SC(C)C(=O)NN=Cc2cccc(OC)c2)c1 (centres undefined)	10.0%
CC(NC(=O)C1CC12CCC2)c1ccccc1 (centres undefined)	-23.4%
Cc1ccc(S(=O)(=O)c2c(C)nn(C(C)(C)C)c2OC(=O)c2cccs2)cc1	-4.2%
Cc1ccc(C(=O)NC(=S)N2CC(C)OC(C)C2)cc1[N+](=O)[O-] (centres undefined)	1.5%

Three compounds out of the list above, ordered by the number in VDR inhibitor, ascending.
Structure	VDR inhibitor
COc1ccc2oc(-c3cccc(NC(=O)CSc4ccc(Cl)cc4)c3)nc2c1	-6.2%
Cc1ccc(C(=O)NC(=S)N2CC(C)OC(C)C2)cc1[N+](=O)[O-] (centres undefined)	1.5%
NC(=O)CSc1nc2ccccc2c(=O)n1-c1ccccc1	4.8%

Carrying on:
Structure	VDR inhibitor
COc1ccccc1Oc1c(NS(=O)(=O)c2ccc(C(C)(C)C)cc2)nc(-c2ncccn2)nc1OCCO	?
CC(C)(C)OC(=O)NN1CC(=O)N2Cc3[nH]c4ccccc4c3C[C@H]2C1=O	13.5%
CCCc1sc(N/N=C/c2ccccn2)nc1-c1ccc(F)cc1	-11.4%
CCOC(=O)c1ccc(Nc2cc(-c3ccccc3)nc(C)n2)cc1	2.2%
CCOC(=O)N1CCN(S(=O)(=O)c2ccc(OC)c3ccccc23)CC1	4.4%
Cc1cc(C(=O)CN2C(=O)CN(C)C2=O)c(C)n1-c1cccc(S(=O)(=O)N2CCOCC2)c1	0.5%
COC(=O)c1ccccc1NC(=O)Nc1cccc(C)n1	24.2%
CN(C)CC/C=C1/c2ccc(F)cc2Sc2ccc(Cl)cc21	-2.0%
Cc1ccccc1NC(=O)COC(=O)COc1ccc2c(c1)CCC2	-7.3%
O=C(NC1CCCC1)C(c1cccnc1)N(C(=O)c1ccco1)c1ccc(F)cc1 (centres undefined)	18.0%
COc1cccc(Nc2nc(-c3ccc(O)cc3)cs2)c1	-1.1%
O=C(N/N=C/c1ccc(Cl)c([N+](=O)[O-])c1)c1ccc2nc[nH]c2c1	2.6%
Cc1ccc(-c2nc(CSc3nc4ccccc4c(=O)n3CCO)cs2)cc1	-11.5%
Cc1cc(=O)oc2cc(OCC(=O)N3CC[C@@]4(O)CCCC[C@H]4C3)ccc12	-21.1%
O=C(CN=C1NS(=O)(=O)c2ccccc21)OCC(=O)c1ccccc1	5.2%
COc1cc(CNCc2ccc(C)cc2)cc(OC)c1OC	-4.9%

Retrieved by compound from above:
Structure	VDR inhibitor
Cc1nn(-c2ccccc2)c(Cl)c1C(=O)NCC(=O)O	16.5%
Cc1nn(Cc2ccc(Cl)cc2)c(C)c1NC(=O)C(c1ccccc1)c1ccccc1	-5.6%
CC(C)(C)OC(=O)NN1CC(=O)N2Cc3[nH]c4ccccc4c3C[C@H]2C1=O	13.5%

(cont.)
Structure	VDR inhibitor
CCCNC(=O)NCc1ccc(N2CCCC2=O)cc1	6.2%
O=C(C[n+]1cccc(/C=N/O)c1)N1CCCc2ccccc21	-23.7%
Nc1cc(S(=O)(=O)O)cc([N+](=O)[O-])c1O	-8.6%
O=C(CNc1cccc(S(=O)(=O)N2CCCC2)c1)Nc1ccc(F)c(F)c1	-5.6%

Screening data from PubChem BioAssay.
